VACV Venus inh: vaccinia inhibition (Venus reporter); Vaccinia virus Venus reporter expression, fluorescence; Potency, µM (highest dose often 36.5 µM), for inactives: at the top dose activity change, negative = inhibition, hits mostly inhibitors; 330,000 compounds, 0.46% hits; AID 720580; active means well fitted inhibition curve with a large enough effect; inconclusive means small, poorly fitted or top-dose-only effect; inactive means no such curve, though single readings can be large or run the other way; tested in A549 cells; further: nearly all actives have a fitted effect of over 30% in size; inactives centre near -10
Vaccinia mCherry: vaccinia inhibition (mCherry reporter); Vaccinia virus mCherry reporter infection, fluorescence; about a quarter of the inactives have no number; Potency, µM (series often up to 36.5 µM), for the others: at the highest dose activity change, negative = inhibition, actives largely listed as inhibitors; 310,000 compounds, 0.63% hits; AID 720579; active = well fitted inhibition curve with a large enough effect; inconclusive = small, poorly fitted or top-dose-only effect; inactive = no such curve, though single readings can be large or run the other way; tested in A549 cells; further: nearly all actives have a fitted effect of over 35% in size; inactives centre near -10
Numbers without * were called inactive; i = inactive; ? = inconclusive; . = no result given; & = joins results of further samples. On the % scale 0 is the no-effect control and ±100 the full control effect; potency means the concentration at half of the fitted maximal effect. An unsorted share of the library; 0.87% or so of the library scored in one or more.

Every second line gives: Vaccinia mCherry, VACV Venus inh
CC(C)Cc1nc2ccc(N)cc2[nH]1
  2%, -3%
Fc1ccc(CSc2ncnc3c2ncn3C2CCCCO2)cc1 (configuration not stated)
  -14%, -21%
Cc1cccc(C)c1NC(=O)CN(C1CCCCC1)S(C)(=O)=O
  i, -18%
NC(=O)c1c(NC(=O)COC(=O)c2ccc(O)c(Cl)c2)sc2c1CCCC2
  i, -8%
CCOc1ccc(CN2CCN(Cc3nc(C(C)C)cs3)CC2CCO)cc1 (configuration not stated)
  -10%, -10%
CC(=O)c1sc(NC(=O)Cc2c(F)cccc2Cl)nc1C
  i, -7%
O=c1cc(-c2ccccc2)c2c([nH]1)CCCC2
  -11%, -5%
C[C@@H]1CN([C@@H](C)CO)C(=O)c2cc(C3=CCCCC3)cnc2O[C@H]1CN(C)C(=O)Nc1cccc(F)c1
  -10%, -25%
CCCNS(=O)(=O)c1ccc(CCC(=O)Nc2cc(Cl)ccc2Oc2ccccc2)cc1
  ., ?
CCOc1cc(C)c(C(C)C)cc1S(=O)(=O)n1cnc(C)c1
  -12%, -27%
COc1ccc2sc(-c3ccc(N(C)C)cc3)c(C#CCCO)c2c1
  ?, ?
Cc1cc(-c2cc(N)n(-c3ccccc3)n2)c(C)n1C1CCCC1
  -16%, -21%
Cc1cccc(C)c1NC(=O)CSc1nnnn1C
  -1%, -10%
O=C(O)c1ccccc1S(=O)(=O)Cc1ccccc1
  i, -3%
CSc1cccc(NC(=O)c2cc3c(COC(C)=O)cnc(C)c3oc2=O)c1
  -12%, -5%
O=c1cc(-c2ccc(O)c(O)c2)oc2ccc3ccccc3c12
  -25%, -23%
CC(C)CCNC(=O)c1ccc2c(c1)N(C)C(=O)c1ccccc1S2
  -11%, -13%&-19%
O=C/C=C/c1c(-c2ccccc2)cc2oc3ccccc3cc1-2
  -30%, 22%
CS(=O)(=O)NCCCNc1c(Cl)cccc1[N+](=O)[O-]
  -20%, -12%
COc1ccc(F)cc1C(=O)C1CCCN(Cc2cnc(N3CCCC3)s2)C1 (configuration not stated)
  -11%, -8%
COc1cc(/C=C/C(=O)OCC(=O)NCCc2ccc(F)cc2)ccc1OC(F)F
  i, -6%
COC(=O)C[C@H]1c2cc(C(F)(F)F)ccc2S(=O)(=O)N1Cc1ccc(OC)cc1
  i, -7%&-10%
O=C(O)C(Cc1c[nH]c2ccccc12)NS(=O)(=O)c1ccccc1 (configuration not stated)
  -7%, 0%
COC(=O)c1sc(C(F)(F)F)c(-c2ccccc2)c1S(=O)(=O)N(C)C
  -4%, -18%
CCc1ccc(NC(=O)c2ccc(-c3ccccc3)s2)cc1
  -4%, 3%
O=C(CSc1nc(=O)n(CCCN2CCOCC2)c2c1CCCC2)Nc1cccc(F)c1
  -16%, -11%
Nc1ncnc2c1ncn2C1OC(CO)C2OC21 (configuration not stated)
  i, -2%
COc1ccc(Cc2nnc(SCC(=O)Nc3ccc(C)c(Cl)c3)[nH]c2=O)cc1
  0%, -6%
CCOc1ccc(/C=C/c2ccc3ccccc3[n+]2C)cc1OCC
  -30%, -17%
Cc1c(Cl)cccc1NC(=O)CSc1sc2c(O)cc(=O)[nH]c2c1C#N
  i, -2%
Cc1ccc(S(=O)(=O)N2CCOCC2)cc1NC(=O)COC(=O)c1ccc(Br)cc1
  i, -8%
O=C(COC(=O)c1ccc(S(=O)(=O)NCc2ccco2)cc1)Nc1ccc(OC(F)F)cc1
  -9%, -4%
COc1cccc(N2CCN(Cc3nc4scc(-c5ccccc5)c4c(=O)[nH]3)CC2)c1
  ?, ?
Cc1nccn1Cc1ccc(Cl)nc1
  1%, 1%
Cc1ccc(CSc2nnc(NC(=O)Cn3cnc4ccccc4c3=O)s2)cc1
  i, -10%
COc1cc(NC(=O)CSc2nc3ccccc3nc2Cc2ccc(Cl)cc2)cc(OC)c1
  -21%, -15%
Cc1nc2sc(C(c3cccs3)N3CCN(c4ccccc4)CC3)c(O)n2n1 (configuration not stated)
  -7%, -9%
Cc1ccc(NC(=O)CSc2nnc(-c3cccs3)o2)cc1S(=O)(=O)N1CCCCC1
  -19%, -13%
O=c1c2ccccc2nc(SCc2cccc(F)c2)n1C1CCCC1
  i, 1%
COc1ccc(N2CCN(CC(=O)Nc3nc4c(s3)CC(C)CC4)CC2)cc1 (configuration not stated)
  -11%, -19%

Rewritten in markdown: three of the compounds above.
| SMILES | Vaccinia mCherry | VACV Venus inh |
| --- | --- | --- |
| NC(=O)c1c(NC(=O)COC(=O)c2ccc(O)c(Cl)c2)sc2c1CCCC2 | i | -8% |
| CCOc1ccc(CN2CCN(Cc3nc(C(C)C)cs3)CC2CCO)cc1 (configuration not stated) | -10% | -10% |
| CC(=O)c1sc(NC(=O)Cc2c(F)cccc2Cl)nc1C | i | -7% |

Remaining list, next part:
Every second line gives: Vaccinia mCherry, VACV Venus inh
CCOc1ccc(NC(=O)NCCN2CCN(c3ccccc3F)CC2)cc1
  -13%, -8%
O=C(Nc1ccc(Br)cc1)c1ccc(Br)c(S(=O)(=O)NCc2ccccc2)c1
  ?, -29%
CS(=O)(=O)NCCSCc1ccco1
  -5%, -5%
COc1ccc(CNc2cccnc2Cl)cc1
  -15%, -4%
CC12CCC(C(=O)NCc3ccccc3Cl)(C(Br)C1=O)C2(C)C (configuration not stated)
  -26%, -20%
Cc1ccc(NS(=O)(=O)c2ccc(C(=O)NCc3cccnc3)cc2)cc1
  -2%, -15%
CC1(C(=O)NS(=O)(=O)Cc2ccccc2)CCN1C(=O)Cc1ccc(-c2ccccc2)cc1 (configuration not stated)
  i, -1%
c1ccc2[nH]c(CN3CCOCC3)nc2c1
  -14%, -7%
Cn1c(=O)c2sccc2n2c(CCCC(=O)NCCc3ccc(S(N)(=O)=O)cc3)nnc12
  -1%, -1%
Cc1nn(Cc2ccccc2)c(C)c1NC(=O)CSc1n[nH]c(C)c1[N+](=O)[O-]
  -13%, -15%
O=C(Nc1ccc(Cl)cc1)N1CCOC12CCCCC2
  -4%, -5%
COCCN1C(=O)c2oc3ccc(C)cc3c(=O)c2C12C(=O)N(C)c1ccccc12 (configuration not stated)
  -13%, -11%
CCn1c(SCC(=O)Nc2nccs2)nnc1-c1ccncc1
  -13%, -3%
Cc1ccc(S(=O)(=O)N2CCN(S(=O)(=O)c3cccs3)CC2)cc1
  -9%, -7%
COC(=O)C1=C(C)N(CC2CCCO2)C(=O)/C1=C\c1ccc(O)cc1 (configuration not stated)
  ., -12%
Clc1ccc(C(Cn2ccnc2)OCc2c(Cl)cccc2Cl)c(Cl)c1 (configuration not stated)
  -11%, -24%
C[C@H](CO)N1C[C@H](C)[C@H](CN(C)S(=O)(=O)c2cccs2)OCc2cnnn2CCCC1=O
  i, -4%
CSc1ccc(CCNC(=O)C2CCN(c3nc4ccccc4nc3C(F)(F)F)CC2)cc1
  ?, ?
COC(=O)c1sc(NC(=O)c2cc(C)on2)nc1C
  -15%, -13%
O=C(Nc1ccc(C(=O)O)cc1)/C(=C\c1ccco1)NC(=O)c1ccc(Br)o1
  -6%, 2%
Cn1c(NC(=O)c2ccc(Br)o2)cc(=O)n(C)c1=O
  ., -2%
COc1ccc(/C=N/NC(=O)c2cc[n+]([O-])cc2)cc1O
  -12%, -4%
Cc1cc2oc(=O)cc(CN3CCOCC3)c2cc1C
  i, -14%
CCOc1cc(/C=N/N=C2/NC(=O)C(CC(=O)O)S2)ccc1OS(=O)(=O)c1ccc(C)cc1 (configuration not stated)
  -10%, 1%
O=C1OC(Nc2nc3ccccc3s2)c2ccccc21 (configuration not stated)
  -19%, -8%
CC1CCN(Cc2ccc(-c3nn[nH]n3)cc2)CC1
  -14%, -12%
CC(=O)c1c(C)oc2c(Cl)cc(NS(=O)(=O)c3cc(C)c(C)cc3C)cc12
  i, 0%
COC(=O)c1c(C(=O)OC)c(-c2ccccc2)n2c1CS(=O)C2 (configuration not stated)
  ., 6%
OC1(c2ccccc2F)CCN(Cc2nnnn2Cc2ccc(F)cc2)CC1
  -11%, -7%
Cc1ccc(CCC(=O)Nc2ncc(Cc3cccc(Cl)c3Cl)s2)o1
  ?, ?
Cn1c(=O)c2c(nc(NCc3ccccc3)n2Cc2ccccc2)n(C)c1=O
  -29%, ?
COc1cc(C(=O)Oc2cc(C)[nH]c(=O)c2[N+](=O)[O-])cc(OC)c1OC
  -14%, -5%
CCNc1nc(NCC)nc(OCCOC(=O)COc2ccc(Cl)cc2Cl)n1
  ., -7%
COc1ccc(CC(N)c2csc(Nc3ccc(S(C)(=O)=O)cc3)n2)cc1 (configuration not stated)
  19%, -18%
Cn1c(=O)c2c(ncn2CC(=O)NC(C)(C)C)n(C)c1=O
  -4%, -24%
CCOc1ccc2[nH]c(=O)c(CN(CCc3ccccc3)C(=O)c3cnccn3)cc2c1
  ., 2%
CCN(C[C@H]1N[C@@](Cc2ccccc2)(C(=O)OC)[C@H]2C(=O)N(Cc3ccccc3)C(=O)[C@@H]12)C(=O)c1ccc(F)cc1
  ?, -24%
Cn1cc(C2=C(c3cn(CCCSC(=N)N)c4ccccc34)C(=O)NC2=O)c2ccccc21
  ?, -1%
C#CC[N+]1(CC#Cc2ccccc2)CCCC1
  ., -25%
CCn1c(=NC(=O)CCS(=O)(=O)c2ccccc2)sc2cccc(OC)c21
  ?, -30%
Cc1nc2ccccc2c2nc(N)nn12
  ., -8%
Cc1ccc(NC(=O)CNC(=O)Cc2cccc3ccccc23)nc1
  i, -1%
Fc1ccc(-n2cc(-c3ccccc3)c3c(N4CCOCC4)ncnc32)cc1
  -21%, -10%
CCCCNC(=O)C1CCCN1S(=O)(=O)c1cccc2nsnc12 (configuration not stated)
  ?, -5%
CCN(C(=O)COC(=O)c1cc2c(s1)CCCCC2)C1CCS(=O)(=O)C1 (configuration not stated)
  0%, -11%
CC(=O)N[C@@H](Cc1c[nH]c2ccccc12)C(=O)OCC(=O)Nc1ccc2c(c1)OCO2
  -13%, 4%
COc1cccc(-c2nc(CS(=O)(=O)CC(=O)NCCc3ccc(Cl)cc3)c(C)o2)c1
  -22%, -22%
CC(=O)c1cccc(NC(=O)c2cccc(NC(=O)c3ccco3)c2)c1
  i, -8%
CC1(C)CC(=O)c2cc(-c3nc(-c4ccc(Cl)cc4)cs3)c(=O)[nH]c2C1
  -13%, -12%

A draw from above in order of heavy-atom count, smallest number first:
Every second line gives: Vaccinia mCherry, VACV Venus inh
CS(=O)(=O)NCCSCc1ccco1
  -5%, -5%
Cc1nc2ccccc2c2nc(N)nn12
  ., -8%
c1ccc2[nH]c(CN3CCOCC3)nc2c1
  -14%, -7%
COc1ccc(CNc2cccnc2Cl)cc1
  -15%, -4%
Nc1ncnc2c1ncn2C1OC(CO)C2OC21 (configuration not stated)
  i, -2%
COC(=O)c1sc(NC(=O)c2cc(C)on2)nc1C
  -15%, -13%
O=C(Nc1ccc(Cl)cc1)N1CCOC12CCCCC2
  -4%, -5%
CC(=O)c1sc(NC(=O)Cc2c(F)cccc2Cl)nc1C
  i, -7%
CCOc1cc(C)c(C(C)C)cc1S(=O)(=O)n1cnc(C)c1
  -12%, -27%
O=C/C=C/c1c(-c2ccccc2)cc2oc3ccccc3cc1-2
  -30%, 22%
O=C(O)C(Cc1c[nH]c2ccccc12)NS(=O)(=O)c1ccccc1 (configuration not stated)
  -7%, 0%
CC(C)CCNC(=O)c1ccc2c(c1)N(C)C(=O)c1ccccc1S2
  -11%, -13%&-19%
CC1(C)CC(=O)c2cc(-c3nc(-c4ccc(Cl)cc4)cs3)c(=O)[nH]c2C1
  -13%, -12%
NC(=O)c1c(NC(=O)COC(=O)c2ccc(O)c(Cl)c2)sc2c1CCCC2
  i, -8%
O=C(Nc1ccc(C(=O)O)cc1)/C(=C\c1ccco1)NC(=O)c1ccc(Br)o1
  -6%, 2%
COc1ccc(Cc2nnc(SCC(=O)Nc3ccc(C)c(Cl)c3)[nH]c2=O)cc1
  0%, -6%
COCCN1C(=O)c2oc3ccc(C)cc3c(=O)c2C12C(=O)N(C)c1ccccc12 (configuration not stated)
  -13%, -11%
Cc1ccc(NC(=O)CSc2nnc(-c3cccs3)o2)cc1S(=O)(=O)N1CCCCC1
  -19%, -13%
O=C(CSc1nc(=O)n(CCCN2CCOCC2)c2c1CCCC2)Nc1cccc(F)c1
  -16%, -11%
CCOc1cc(/C=N/N=C2/NC(=O)C(CC(=O)O)S2)ccc1OS(=O)(=O)c1ccc(C)cc1 (configuration not stated)
  -10%, 1%
C[C@@H]1CN([C@@H](C)CO)C(=O)c2cc(C3=CCCCC3)cnc2O[C@H]1CN(C)C(=O)Nc1cccc(F)c1
  -10%, -25%
CCN(C[C@H]1N[C@@](Cc2ccccc2)(C(=O)OC)[C@H]2C(=O)N(Cc3ccccc3)C(=O)[C@@H]12)C(=O)c1ccc(F)cc1
  ?, -24%
